HIV TAR-Tat: TAR RNA-Tat peptide displacers, HIV-1, primary screen, biochemical, FRET, FAM/TAMRA-labeled Tat; HIV-1 TAR RNA, Tat peptide displacement FRET; hits give high values; z-score (no concentration beside the values); 100,000 tested, 0.6% active;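 note: score is relative to mean and SD of negative controls; some compounds called inactive have numbers as strong as hits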
CDC25B CDK2 inh: primary biochemical HTRF screen for blockers of M-phase inducer phosphatase 2 binding to CDK2/cyclin A | HTRF CDC25B-CDK2/CyclinA binding, anti-His/anti-Flag; hits give high values | z-score (test concentration not listed) | 94,000 tested, 0.72% active | P30305+P24941;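 note: score is relative to mean and SD of negative controls; strong numbers were not always called active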
The depositor's hits bear a star; / = no result given.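 Rule for the calls: active = z-score from 3 up in half or more of its runs; inactive = the rest.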

SMILES	HIV TAR-Tat	CDC25B CDK2 inh
O=C(O)c1cccc2c1NC(c1ccc(Br)cc1)C1C3CCC(C3)C21 (stereo not drawn)	-0.7	-0.06
FC(F)(F)c1cccc(-c2csc(C3COc4ccccc4O3)n2)c1 (stereo not drawn)	/	0.31
O=c1c2cc3c(=O)n(CCO)c(=O)c3cc2c(=O)n1CCO	/	-0.5
O=C(O)c1cc(O)c(O)c(O)c1	6.8*	/
CC(C)C(NC(=O)C1CCN(c2nn3c(=O)c4c(nc3s2)CCCC4)CC1)c1cccs1 (stereo not drawn)	0.74	/
C/S(=N\S(=O)(=O)c1ccc(Cl)cc1)c1sc(Cl)c2c1C(=O)CC(C)(C)C2 (stereo not drawn)	/	-0.69
CCC(=O)Nc1ccc(S(=O)(=O)Nc2onc(C)c2C)cc1	/	-1.7
Cc1ccc(C)c(C(=O)CC2(O)C(=O)N(Cc3ccccc3C)c3ccccc32)c1 (stereo not drawn)	/	-0.79
O=C1CC(c2ccc(C3=NN(c4ccccc4)C(=O)C3)cc2)=NN1c1ccccc1	/	-2.5
O=C(NCc1cccs1)c1cc2n(n1)C(C(F)(F)F)CC(c1ccc(F)cc1)N2 (stereo not drawn)	1.3	-0.2
O=C(O)CCNC(=O)COc1ccc2c3c(c(=O)oc2c1)CCCC3	/	-0.92
NC(=O)CCc1c[nH]c2ccccc12	1.1	-0.96
Cn1c(CCc2cccc(NS(=O)(=O)c3cccs3)c2)nc2ccccc21	1.4	/
Cc1ccccc1Cn1nnc(-c2ccc(F)cc2)n1	0.93	-1.6
CN(C)CCCNC(=O)c1c(O)c2c([nH]c1=O)CCCC2	0.63	/
CC(=O)c1cccn1S(=O)(=O)c1ccccc1	/	-0.7
COc1ccc(NC(=O)NCCn2nnc3cc(S(=O)(=O)N(C)C)ccc32)cc1	0.39	/
O=C(CSc1nc2ccccc2s1)Nc1ccc(Cl)cc1	3.3	-2.1
CCOc1ccc(-c2cc(C(=O)N/N=C/C=C/c3ccccc3)[nH]n2)cc1	/	-2.1
O=C(COc1ccccc1)Nc1ccc(OCc2cc(=O)n3cc(Cl)ccc3n2)cc1	0.89	/
O=C(CSc1nc(=O)n(-c2ccccc2)c2c1CCC2)c1ccc2c(c1)OCCO2	-0.04	-1.1
COc1ccc2[nH]c3c(=O)n(CC(=O)N4CCCC4)c(=S)[nH]c3c2c1	/	-1.3
O=c1[nH]c(-c2cc(Br)cs2)nc2ccccc12	/	-1.2
O=C(Cn1nnc(-c2ccc(F)cc2)n1)N/N=C/c1ccc(-c2ccc3c(c2)COC3=O)o1	/	-1.9
Cc1cc(Cl)ccc1NS(=O)(=O)c1ccc2c(c1)[C@H]1C=CC[C@H]1[C@@H](c1ccc(C(=O)O)cc1)N2	/	-0.5
CCSc1nnc(NC(=O)C2=Cc3sc4c(c3CS2)CCCC4)s1	-4.8	/
O=c1oc(-c2cccc(Cl)c2)nc2ccccc12	0.93	0.6
CCCCOC(=O)c1cccc(NC(=O)c2ccc([N+](=O)[O-])cc2Cl)c1	/	-1.9
Cn1nc(C(=O)N2CCN(C3CCCCC3)CC2)c2c1-c1ccccc1OC2	1.5	-0.44
CCc1ccccc1NC(=O)NC1=C(C#N)C(C)(CC)Cc2ccccc21 (stereo not drawn)	2	-1.4
COc1ccc(OC)c(-n2nnc(-c3nc(-c4ccc(OC)c(OC)c4)no3)c2C)c1	0.38	/
Cn1c(-c2ccc(Cl)cc2)cnc1NCc1cccc(F)c1	-1.1	-1.1
Cc1[nH]c(=O)[nH]c(=O)c1CSCC(=O)OCC(=O)Nc1nc2c(s1)C(=O)CC(C)(C)C2	/	-4.3
CCOC(=O)c1cc2n(n1)CC(C)(C(=O)NC1CCCCC1)N(CCc1cccs1)C2=O (stereo not drawn)	1.4	-0.67
Cc1nn(-c2ccccc2)c(C)c1-c1ccccc1O	0.88	0.78
COC(=O)c1ccc(Nc2nncc(=O)[nH]2)cc1	0.52	6.3*
N#CC1(Nc2cccc(C(F)(F)F)c2)CCCCCC1	/	-2.3
Cc1ccc(CNc2nc(N3CCN(C)CC3)nc3c2cnn3C)cc1	1.1	/
Cc1ccc2nc(NS(=O)(=O)c3ccc4c(c3)NC(=O)CC(C)S4)sc2c1 (stereo not drawn)	0.71	/
Cn1cccc1Cc1nnc(SCC(=O)N2CCCc3ccccc32)n1-c1ccc(F)cc1	/	-1.5
Clc1cccc(-c2nnc3sc(-c4ccncc4)nn23)c1	2.3	-0.66
Cc1cc(C)c2oc(C(=O)NC3CCS(=O)(=O)C3)cc(=O)c2c1 (stereo not drawn)	0.88	-0.95
Cc1ccccc1-c1noc(-c2ccc(F)cc2)n1	/	-0.49
Cn1c(=O)c2c(SCC(=O)Nc3nc4ccccc4s3)nc(-c3ccccc3)nc2n(C)c1=O	0.62	/
Cn1c(SCC(=O)c2ccccc2)nnc1-c1cccs1	1.9	/
Cc1ccc(NC(=O)c2ccc3n[nH]c(=O)n3c2)cc1	-0.9	-1.9
COc1ccc(Br)cc1-c1nc(Cn2nc(C)c3c(C)onc3c2=O)c(C)o1	-0.59	/
Cc1nnsc1-c1onc(C)c1C(=O)O/N=C/c1ccc(Cl)cc1	/	-0.61
N#CC1CN(CCc2ccccc2)CN(CCc2ccccc2)C1	/	-2.5
O=C(NC1CCCCC1)[C@H](CSCc1ccccc1)N1Cc2ccccc2C1=O	/	0.91
CC(C)OC(=O)CN1CCN(C2c3ccccc3-c3ccccc32)CC1	1.6	/
O=S(=O)(c1cccc2cccnc12)N1CCN(c2ccccc2)CC1	1.3	-1.9
CC(C)c1ccc(N2C(=O)Nc3ccccc3S2(=O)=O)cc1	2.5	/
CCOC(=O)c1c(NC(=O)Cc2coc3ccc(CC)cc23)sc2c1CCC2	2.2	1.1
O=C(NCCc1ccccc1)N1CCC2(CC1)Nc1cc(F)ccc1-n1cccc12	-0.3	/
CCC(=O)Oc1ccc2[nH]c(C)c(C)c2c1	2.4	-1.1
Cc1ccc(C(=O)NC(C)CCc2ccccc2)cc1NC(=O)C1=CSCCO1 (stereo not drawn)	1.6	/
COc1cc(C2CC(=O)NC3=C2C(=O)CC(c2ccccc2Cl)C3)ccc1O (stereo not drawn)	0.79	-0.76
CCCN(CCC)C(=O)C1CC(=O)OC12CCCCC2 (stereo not drawn)	/	-2.4
COc1cc(OC)c(Nc2c(-c3ccc(C)c(C)c3)c(=O)c2=O)cc1Cl	1.9	/

Additional compounds follow:
SMILES	HIV TAR-Tat	CDC25B CDK2 inh
O=C(CSc1n[nH]c(-c2ccccc2)n1)c1ccc(Cl)cc1	/	-1.4
COc1ccc(-c2cnc(C)o2)cc1S(=O)(=O)N1CCCC1	1.1	/
CC(C)c1nc2ccccc2n1CCOc1ccccc1	-0.57	-1.5
Cc1ccc(S(=O)(=O)c2nc(S(C)(=O)=O)sc2N2CCN(Cc3ccccc3)CC2)cc1	1	0.53
O=C(NCCCO)c1nnc(Cc2ccc3c(c2)OCO3)o1	1	0.39
CCOC(=O)c1c(Sc2ccccc2)cnn1C(=O)Nc1cccc(Cl)c1	/	-1.8
c1ccc(Nc2nc3ccccc3n3nnnc23)cc1	-0.68	-0.17
COc1cc(OC)c(NC(=O)c2cc(CN3CCCC3)on2)cc1Cl	1.3	/
COCCCNC(=O)c1cc2c(=O)n3cccc(C)c3nc2s1	/	-0.23
C/C(=N\NC(N)=O)c1csc2ccccc12	/	-0.81
O=S(=O)(c1ccc2nc(Cl)cnc2c1)N1CCCCC1	-0.29	0
CCC(Cn1nnc2ccccc2c1=O)NC(=O)NCc1ccccc1 (stereo not drawn)	2.1	-1.9
C=CCN1C(=S)NC2c3cc(Br)ccc3OC1(C)C2C (stereo not drawn)	/	0.8
O=C(NCCCn1ccnc1)C(=O)Nc1c2c(nn1-c1ccccc1)CSC2	2.4	/
CCOC(=O)c1cc(-c2ccc(S(=O)(=O)Nc3ccccn3)s2)on1	0.72	/
CCN(CC)c1ccc(Nc2nc3ccccc3n3c(C)nnc23)c(C)c1	1.3	-0.32
O=C(CSc1ncnc2nc[nH]c12)c1ccc(O)c(O)c1	/	2.6
CCC(Cc1ccccc1)NS(=O)(=O)c1cc(Br)cnc1N (stereo not drawn)	0.73	-0.17
NC(=O)CN1C(=O)C(O)(CC(=O)c2ccc3c(c2)CCCC3)c2ccccc21 (stereo not drawn)	2.3	-0.71
CC(C)(C)S(=O)(=O)/C(C#N)=C/N1CCC(n2cccc2)CC1	/	-0.2
CC(C)c1nnc2sc(COc3ccc(F)cc3)nn12	0.28	0.31
CSc1ccc(NC(=O)C2CCN(c3cnccn3)CC2)cc1	0.89	0.79
CCOc1ccc(C2CC(=O)N3CN(Cc4cccnc4)CSC3=C2C#N)cc1 (stereo not drawn)	-2.2	6.8*
CCOC(=O)c1c(S(=O)(=O)N2CCCC(C(=O)N3CCc4ccccc43)C2)c(C)n(C)c1C (stereo not drawn)	2.4	/
CC1(C)Cc2nc3sc4c(=O)n(CC(=O)NCC5CCCO5)cnc4c3cc2CO1 (stereo not drawn)	-0.12	/
O=C1Nc2ccc(Br)cc2C1(O)c1c[nH]c2ccccc12 (stereo not drawn)	-1.6	-0.83
CCCOC(=O)C1=C(C)NC2=C(C(=O)CC(c3cccs3)C2)C1c1ccc(F)cc1 (stereo not drawn)	1.5	-1.3
CCOc1ccc(N2C(=O)C3ON(c4ccccc4)C(c4ccco4)C3C2=O)cc1 (stereo not drawn)	0.9	-1.1
CCC1CCCCN1C(=O)C1=CC(c2ccc(C)cc2)=NS(=O)(=O)N1C (stereo not drawn)	0.67	-2.3
O=C(CCS(=O)(=O)c1ccc2c(c1)NC(=O)CS2)Nc1cc(F)ccc1F	2.8	/
CCCCN(C)CCNc1nc(C)nc2oc(C)c(C(=O)OCC)c12	0.13	/
O=C(O)CSc1cccc2cccnc12	0.72	0.32
O=c1c(O)c(N2CCN(c3ccccc3F)CC2)c1=O	-0.51	/
O=C(CCCN1CCSc2ccccc21)NC1CCCC1	1.2	/
CCc1cccc(NS(=O)(=O)c2c(C)nc3sc4cc(C)ccc4n3c2=O)c1	0.52	/
COCCOc1ncc(NC(=O)CSCC(=O)O)cc1C(F)(F)F	/	-1.3
CSC1=NCCN1S(=O)(=O)c1ccc(F)cc1	0.03	0.12
Cc1ccc(C(=O)NCCCN2CCCC2=O)cc1NC1=NC2CS(=O)(=O)CC2S1 (stereo not drawn)	0.24	0.32
CCOC(=O)c1noc2ncn(Cc3nc(-c4ccc(C)cc4)oc3C)c(=O)c12	0.19	/
Cc1cc(NC(=O)C2CCCN2S(=O)(=O)c2ccc(Cl)cc2)ccc1Cl (stereo not drawn)	/	-1.4
COC(=O)CSc1nc2c(cc1C#N)CCCC2	1.6	0.02
CCOc1ccccc1CN1C(=O)C(=O)c2cc(Br)cc(C)c21	-0.08	-1.2
O=C(O)C1CCCN1C(=O)Nc1ccccc1F (stereo not drawn)	0.64	-1.1
CCCCNC(=O)n1c(SC)nc2ccccc21	-0.06	-0.15
CCCCCCSc1s[nH]c(=O)c1C#N	-0.23	-1.3
O=C(c1ccc(Cl)cc1)N1N=C(C2CCCCC2)CC1(O)C(F)(F)F (stereo not drawn)	/	-1.1
C/C(=N\OC(=O)c1ccccc1)c1cnn(-c2cc(C(F)(F)F)cc(C)n2)c1C	/	-1.4
O=C1CCCC2=C1C(c1cccs1)n1c(nc3ccccc31)N2 (stereo not drawn)	/	-0.51
Cc1cccc(-n2c(C)c(C)c3c2ncn2nc(-c4ccncc4)nc32)c1	1.3	-1.6
COc1ccc(OCCSc2nc3ccccc3n2CCC(=O)O)cc1	/	0.6
O=C(COc1ccc(Cl)cc1)N(Cc1cccs1)C1CCS(=O)(=O)C1 (stereo not drawn)	2.6	-1.7
S=C1NCN(CCCCc2ccccc2)CN1	/	-1.4
COc1ccccc1-n1nnc(-c2nc(-c3ccccc3F)no2)c1N	1.1	/
Cc1ccc(Nc2nc(N3CCOCC3)nc(N)c2[N+](=O)[O-])cc1C	0.09	/
COc1ccc(-c2c(C)oc3cc(O)cc(O)c3c2=O)cc1OC	0.8	-0.17
CCCc1nn2c(=O)cc(CSCC(=O)Nc3ccc(Cl)cc3)nc2s1	-0.57	/
Cc1nc(NCCN)c(C#N)c2c1COC(C)(C)C2	-1.1	-1.9
Cc1ccc(C2C3=C(Nc4c2c(=O)n(C)c(=O)n4C)c2ccccc2C3=O)cc1 (stereo not drawn)	3.4	-0.63
Cc1cn2c(=O)cc(CSc3n[nH]c(-c4ccccc4F)n3)nc2s1	0.46	/
O=S(=O)(c1cc(Br)c(Cl)s1)N1C=CC(C(F)(F)F)=NCC1	/	-1.4

Screens (PubChem BioAssay)
